ClpP mod: qHTS Assay for Activators of ClpP; purified B. subtilis ClpP, FRET peptide cleavage, 20 min; 340,000 compounds, 1.9% hits; Potency, µM (doses to about 57.5 µM), without a hit: at the highest dose activity change, negative = active; active = well fitted falling curve with a large enough effect; inconclusive = small, poorly fitted or top-dose-only effect; inactive = no such curve, though single readings can be large or run the other way; also: potency is read from the fitted curve at half-maximal effect; the source files actives as falling curves though it sought activators and does not explain the sign; nearly all actives have a fitted effect of over 65% in size; many hits overshoot -100%
Target sequence (P80244 whole entry, looked up): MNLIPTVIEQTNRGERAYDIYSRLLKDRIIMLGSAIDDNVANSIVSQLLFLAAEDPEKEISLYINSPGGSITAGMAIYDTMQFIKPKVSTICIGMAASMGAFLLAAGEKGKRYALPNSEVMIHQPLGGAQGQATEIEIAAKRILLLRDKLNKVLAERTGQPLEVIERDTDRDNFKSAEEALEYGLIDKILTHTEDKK
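FRET quenching reversal measured ClpP activation: 10 microg/mL B. subtilis ClpP at pH 8 with the FRET-FV decapeptide, read at 430 nm after 320 nm excitation. The 20-min minus 0-min signal was scaled between DMSO/no-enzyme wells and ADEP (5.8 microM final).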
PINK1 modulator: A Quantitative High throughput Screen to Identify Chemical Modulators of PINK1 Expression | PINK1 immunofluorescence, high-content cytometry, 24 h | 410,000 compounds, 0.2% hits | Potency, µM (series often up to 76.6 µM), inactives show top-dose activation (PINK1 increase), hits mostly activators | AID 624263, 2012; active = well fitted activation curve with a large enough effect; inconclusive = small, poorly fitted or top-dose-only effect; inactive = flat fitted curve, though single readings scatter; cell line not stated here;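 also: potency is read from the fitted curve at half-maximal effect; % of control where 0% means no effect; nearly all actives have a fitted effect of over 65% in size; a mitochondrial uncoupler was the plate control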
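Decision-based qHTS: stable cells, 24 h exposure to five compound concentrations, CCCP as control. Fixed cells stained for PINK1 plus nuclear, mitochondrial and cell markers, cytometer read.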
Menin MLL FP FL: qHTS Assay for Inhibitors Targeting the Menin-MLL Interaction in MLL Related Leukemias: Competition With Fluorescein Labeled MLL-derived Peptide. Fluorescence polarization, fluorescein-MLL peptide displacement from menin. FP activity change, % at 61.4 µM. 290,000 tested, under 10 active. AID 1766, 2009; inconclusive = falling polarisation curve, or a change in total fluorescence; inactive = total fluorescence flat and polarisation flat or rising; no compound was filed as active; the % refers to the polarisation; negative = inhibition;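 also: % of control where 0% means no effect; inhibitors lower the polarisation; unlabelled MLL peptide was the positive control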
TRPML1 agonist: qHTS for Agonists of the Human Mucolipin Transient Receptor Potential 1 (TRPML1); Mucolipin-1 (Homo sapiens), Q9GZU1; TRPML1-expressing cells, Ca2+ dye fluorescence, FDSS; host cell line not named in the record; reference of the full effect not given here; activation, % (no concentration beside the values); 410,000 compounds, 0.12% hits; AID 624414, 2012; in the data active = activation above about 50%; inconclusive = about 30% to 50%; inactive = below about 30%; also: 0% is about no effect; the text of the record puts the active cut at 80%
Target sequence (Q9GZU1 whole entry, looked up): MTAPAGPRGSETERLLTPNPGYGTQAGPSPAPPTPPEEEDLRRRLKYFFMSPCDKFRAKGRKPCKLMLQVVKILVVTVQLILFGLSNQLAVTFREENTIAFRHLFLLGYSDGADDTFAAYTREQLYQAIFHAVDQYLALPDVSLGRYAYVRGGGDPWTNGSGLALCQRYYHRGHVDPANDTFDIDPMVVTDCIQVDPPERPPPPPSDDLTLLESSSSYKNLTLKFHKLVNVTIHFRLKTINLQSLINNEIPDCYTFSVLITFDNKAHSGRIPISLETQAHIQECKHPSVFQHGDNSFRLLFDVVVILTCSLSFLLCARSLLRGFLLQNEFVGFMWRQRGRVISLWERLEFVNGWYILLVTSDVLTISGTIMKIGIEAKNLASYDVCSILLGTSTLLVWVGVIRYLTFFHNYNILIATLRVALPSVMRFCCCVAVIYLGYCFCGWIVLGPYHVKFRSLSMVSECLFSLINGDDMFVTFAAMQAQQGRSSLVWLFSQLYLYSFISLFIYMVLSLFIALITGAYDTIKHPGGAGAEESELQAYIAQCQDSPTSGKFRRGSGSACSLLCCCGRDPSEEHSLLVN
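Kinetic FDSS Ca2+ read in Tet-induced TRPML1-DL cells (ABD Ca8 dye plus quencher, 45-90 min RT loading): baseline, then compound, then 110 s agonist window; EC80 agonist 54-4 at 4uM final added afterwards for a 110 s antagonist window.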
Sfp inh: qHTS Assay for Inhibitors of Bacillus subtilis Sfp phosphopantetheinyl transferase (PPTase); Biochemical Sfp PPTase activity, qHTS; 310,000 compounds, 3.5% hits; AID 1490, 2009; Potency, µM, inactives show max response, negative = inhibition, actives largely listed as inhibitors; active = well fitted inhibition curve with a large enough effect; inconclusive = small, poorly fitted or top-dose-only effect, or another doubt; inactive = no such curve, though single readings can be large or run the other way;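 also: the enzyme is Sfp with the accession as filed and its product quenches rhodamine fluorescence; potency is read from the fitted curve at half-maximal effect; 0% = enzyme reaction without inhibitor and -100% = no enzyme wells; top concentration of the series not given in the record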
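Reaction rates are the 30-min fluorescence difference (ex 525, em 598 nm) in wells containing 15 nM Sfp, 5 uM rhodamine-CoA and 12.5 uM BHQ-2-YbbR at pH 7.6 with 10 mM MgCl2.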
TRPML1 blocker: qHTS for Inhibitors of the Human Mucolipin Transient Receptor Potential 1 (TRPML1); TRPML1-inducible cells, Ca2+ dye fluorescence, FDSS; stronger effect = lower value; inhibition of EC80 agonist-evoked calcium signal; activity change, negative = inhibition, % (no concentration beside the values); 390,000 compounds, 0.02% hits; AID 624415, 2012; in the data active means activity change below about -50%; inconclusive means about -30% to -50%; inactive means above about -30%;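 also: stimulus is agonist 54-4 at its EC80 concentration; % is scaled to controls: 0 for no effect and ±100 for the full control effect; compound concentration not given in the record; the text of the record puts the active cut at -80%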
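Calcium fluorescence in TRPML1-DL cells induced overnight with Tet: a 110 s read after compound pin addition, then a 110 s antagonist read after challenge with 54-4 at 4 uM final (EC80).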
TRPV1 PAM: HTS Assay for Compounds that Act as Potentiators of the Vanilloid Receptor 1 | Transient receptor potential cation channel subfamily V member 1 (Homo sapiens), Q8NER1 | potentiation, % at 8.33 µM | TRPV1-expressing cells, Fluo-8 calcium influx, capsaicin EC20 potentiation; host cell line not named in the record; control for the full effect not named in the record | 320,000 compounds, 0.02% hits | AID 540277, 2011; active means potentiation above 80%; inconclusive means 30% to 80%; inactive means below 30%; also: 0% is about no effect
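Fluo-8 calcium influx in TRPV1-expressing cells, kinetic read (ex 480/em 520 nm). Compound added and read 3 min for agonist activity, followed by capsaicin at EC20 final and 2 min further read for enhancement.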
Starred values were filed as active, the others as inactive; ? = inconclusive; / = not tested or not shown; [ ] = dose if it differs, or a comment.

SMILES	ClpP mod	PINK1 modulator	Menin MLL FP FL	TRPML1 agonist	Sfp inh	TRPML1 blocker	TRPV1 PAM
CCOc1ccc2nc(N(CCN(CC)CC)C(=O)c3ccc([N+](=O)[O-])cc3)sc2c1	/	0.1%	-1.9	-0.6	?	14	-11
CC(C)C[C@H](NC(=O)[C@@H]1CCCN1C(=O)[C@@H](N)Cc1ccc(O)cc1)C(=O)NCC(N)=O	-0.6%	0.6%	2.4	-0.7	-14%	1	-7
CN1CCN(C(=O)Cc2ccccc2)CC1	0.4%	-1.0%	2.7	0.1	12%	12	-14
CCC1CN2CCc3cc(OC)c(OC)cc3C2CC1CC1NCCc2c1[nH]c1ccc(O)cc21 (stereo not drawn)	?	-4.2%	/	0.4	/	2	/
O=[N+]([O-])c1ccc2nc(N3CCNCC3)ccc2c1	-0.1%	-0.4%	5.5	-0.1	?	16	/
O=c1[nH]c(=O)n(C2CCCCCC2)c(O)c1C=NCC1CCCO1 (stereo not drawn)	0.6%	2.3%	-0.5	-0.3	8%	-3	0
O=C1NC(=O)C(=Cc2cc([N+](=O)[O-])ccc2N2CCCCC2)C(=O)N1	/	-0.4%	0.3	-0.2	16%	-21	1
C[C@]12C[C@H](O)[C@@H](O)CC1=CCC1C2CC[C@@]2(C)C1CC[C@@H]2O (stereo partly drawn)	/	0.5%	/	-0.6	/	3	/
COc1ccc(F)cc1C(=O)C1CCCN(Cc2cnc(C)s2)C1 (stereo not drawn)	-9.1%	1.2%	-1.0	0.6	9%	-17	-4
COc1cccc(C2CC3C(=O)C=CC2N3Cc2ccccc2)c1 (stereo not drawn)	-2.2%	3.0%	18	0.4	9%	10	-2
O=C(c1ccc(CS(=O)(=O)c2ccccc2)o1)N1CCC2(CC1)OCCO2	-0.4%	13%[38.3 µM]	-1.3	-0.6	-35%	2	-4
CN1C2CCC1CC(OC(=O)c1ccc([N+](=O)[O-])cc1)C2 (stereo not drawn)	1.4%	-1.7%	2.7	-1.0	6%	8	5
CCCCn1c(=O)c(C(=O)NCc2ccncc2)c(O)c2ccccc21	-8.6%	2.9%	-16	-0.8	-5%	46	/
COC(=O)C1=C(c2ccc(-c3ccccc3)c(F)c2)C[C@@H]2CC[C@H]1N2C(=O)NCc1ccco1	-2.6%	2.6%	/	1.9	/	13	-11
COc1ccc(-n2c(C)cc(C(=O)C[N+]34CCN(CC3)CC4)c2C)cc1	/	-1.4%	-0.6	-0.5	-3%	1	-11
COc1ccc(C(C)=O)cc1CC(C(=O)c1ccc(Br)cc1)N(C)C (stereo not drawn)	1.8%	-0.1%	2.9	-0.8	1%	0	0
Cc1[nH]c2ccccc2c1C(=O)C(=O)N1CCC2(CC1)OCCO2	/	2.2%	-2.3	0.0	19%	-2	-1
O=C(Nc1ccc(OC(F)(F)F)cc1)c1cccn(Cc2ccccc2Cl)c1=O	0.5%	-4.1%	/	2.0	/	-8	/
CC1(C)C2([N+](=O)[O-])CN3CC1([N+](=O)[O-])CN(C2)C3c1ccccn1 (stereo not drawn)	-0.3%	3.6%	-2.4	0.0	18%	7	-6
Cc1ccccc1Cn1cccc(C(=O)Nc2nc3ccccc3s2)c1=O	-17%	0.4%	/	1.7	/	0	/
N#Cc1cc2c(nc1SCC(=O)Nc1cccc(C(F)(F)F)c1)C1CCN2CC1	-10%	2.6%	/	2.8	/	-9	/
COC(=O)C1=C(c2ccc(C(C)=O)cc2)C[C@@H]2CC[C@H]1N2C(=O)NC1CCCCC1	-1.0%	-0.7%	/	0.0	/	2	-3
O=c1c2ccccc2nc(-c2ccccc2F)n1-c1ccccc1	/	-0.2%	0.1	0.2	1%	-7	-7
CCc1ccc(N2C(=O)NC(=O)/C(=C\c3cc(C)n(-c4cc(C(=O)O)cc(C(=O)O)c4)c3C)C2=O)cc1	/	-0.2%	23	0.4	-7%	-4	-11
COc1ccc(CN2CCCC(C(=O)c3ccc(Cl)cc3)C2)c(O)c1 (stereo not drawn)	-1.1%	0.7%	-0.9	/	3%	/	5
Cc1cccc2sc(NC(=O)c3cccn(Cc4ccccc4)c3=O)nc12	-18%	0.9%	/	-1.0	/	-1	/
N[C@@H](Cc1ccccc1)C(=O)N1C[C@H]2C[C@@H](C1)c1cccc(=O)n1C2	-4.0%	-0.3%	-3.8	/	1%	/	-7
Cc1ccccc1N1CCN(C2CCCN(C(=O)COc3ccccc3)C2)CC1 (stereo not drawn)	-0.9%	-1.3%	-0.1	1.2	-5%	55	-12
O=C(NN=Cc1ccc(N(CCCl)CCCl)cc1Cl)c1cccnc1	-6.6%	-0.5%	/	1.0	/	2	/
CCn1c(O)c(C(=O)CC2NCCc3ccccc32)c(=O)n(CC)c1=S (stereo not drawn)	-2.2%	1.9%	?	0.8	45µM*	12	7

An excerpt of these results, with each value named:
> CCc1ccc(N2C(=O)NC(=O)/C(=C\c3cc(C)n(-c4cc(C(=O)O)cc(C(=O)O)c4)c3C)C2=O)cc1
  ClpP mod: /
  PINK1 modulator: -0.2%
  Menin MLL FP FL: 23
  TRPML1 agonist: 0.4
  Sfp inh: -7%
  TRPML1 blocker: -4
  TRPV1 PAM: -11

> COc1ccc(CN2CCCC(C(=O)c3ccc(Cl)cc3)C2)c(O)c1 (stereo not drawn)
  ClpP mod: -1.1%
  PINK1 modulator: 0.7%
  Menin MLL FP FL: -0.9
  TRPML1 agonist: /
  Sfp inh: 3%
  TRPML1 blocker: /
  TRPV1 PAM: 5

Other records.
SMILES	ClpP mod	PINK1 modulator	Menin MLL FP FL	TRPML1 agonist	Sfp inh	TRPML1 blocker	TRPV1 PAM
COc1c(OP2(=S)OCC(C)(C)CO2)cnn(C2CCCCC2)c1=O	-2.3%	1.5%	/	-0.4	/	/	/
COc1cccc(CN2CCNCC2)c1OC	-0.5%	2.1%	4.0	-1.2	-7%	-3	-9
Cc1ccc(N2C(=O)NC(=O)/C(=C\c3cc(C)n(-c4sc5c(c4C#N)CCCC5)c3C)C2=O)cc1	/	1.3%	15	0.3	40µM*	22	-14
COc1ccc(C(=O)OCC2CN2c2cccc([N+](=O)[O-])c2)cc1 (stereo not drawn)	1.4%	0.1%	/	-0.6	/	/	/
Oc1ccc(CCN2CCCCC2)cc1	/	-2.2%	/	1.3	/	1	/
O=[N+]([O-])c1ccc(Nc2ccccc2)cc1	-0.8%	6.3%	-0.5	4.0	-2%	-21	?
CCN1C(=O)NC(=O)/C(=C\c2ccc(N3CCOCC3)cc2OC)C1=O	/	/	-0.8	/	-6%	/	-14
Clc1ccc(-c2nc3ccc(Cl)cn3c2CN2CCOCC2)cc1	?	-1.6%	-1.5	-0.1	?	28	-27
CCOC(=O)[C@]12Cc3ccccc3[C@H]1N(CCC(=O)OC)C(=O)c1ccccc12	-4.3%	-1.3%	/	-0.7	/	/	/
COc1ccccc1-n1c(-c2ccccc2Cl)nc2ccccc2c1=O	0.0%	-1.3%	-3.5	4.1	12%	-6	-19

Entries of single compounds as entered above. Screens in order: ClpP mod | PINK1 modulator | Menin MLL FP FL | TRPML1 agonist | Sfp inh | TRPML1 blocker | TRPV1 PAM
`COc1c(OP2(=S)OCC(C)(C)CO2)cnn(C2CCCCC2)c1=O` reads -2.3% | 1.5% | / | -0.4 | / | / | /
`COc1cccc(CN2CCNCC2)c1OC` reads -0.5% | 2.1% | 4.0 | -1.2 | -7% | -3 | -9
`Cc1ccc(N2C(=O)NC(=O)/C(=C\c3cc(C)n(-c4sc5c(c4C#N)CCCC5)c3C)C2=O)cc1` reads / | 1.3% | 15 | 0.3 | 40µM* | 22 | -14

(more compounds)
SMILES	ClpP mod	PINK1 modulator	Menin MLL FP FL	TRPML1 agonist	Sfp inh	TRPML1 blocker	TRPV1 PAM
ClCCNc1nc2ccc(Cl)cc2[nH]1	-2.0%	3.2%	3.9	1.2	24%	-15	-5
C[C@@H]1CC[C@H]2[C@@H](C)C(=O)O[C@@H]3O[C@@]4(C)CC[C@@H]1[C@]32OO4	0.1%	-0.9%	-1.6	/	-1%	/	-17
O=C1c2ccccc2-n2nnc(-c3ccccc3)c2C2c3ccccc3CCN12 (stereo not drawn)	-5.1%	0.7%	/	-0.5	/	/	/
CCC(C)(C)n1nnnc1C(c1cccs1)N1CC=C(c2ccc(F)cc2)CC1 (stereo not drawn)	-24%	/	5.0	1.4	-2%	59	?
CC(CCC(=O)O)C1CCC2C3C(=O)C[C@@H]4CC(=O)CC[C@@]4(C)C3CC(=O)[C@]12C (stereo partly drawn)	/	2.7%	0.4	/	7%	/	/
Cc1ccc(-n2c(=O)[nH]c3ccc(Br)cc3c2=O)cc1	-0.8%	6.5%	/	-0.6	/	-18	/
N=c1c2c(n(Cc3ccc(Cl)cc3Cl)c3c1CCC3)CCCC2	-1.7%	?	1.2	-0.2	4%	8	17
O=[N+]([O-])c1ccc(-c2ccccc2)c([As](=O)(O)O)c1	-1.7%	4.2%	-6.2	-0.4	-16%	5	11
COC(=O)C1=C(c2ccccc2)C[C@@H]2CC[C@H]1N2C(=O)NCc1ccco1	0.9%	1.0%	/	-1.0	/	-2	/
O=C1NC(=O)C(C/C=C/c2ccccc2)C(=O)N1	-0.5%	1.5%	0.4	0.0	71µM*	9	-12
C=CCN1C(=O)NC(=O)/C(=C/c2ccc(N(C)C)c(Br)c2)C1=O	/	5.3%	6.5	-0.6	50µM*	42	13
Cc1cc(C)cc(N2C(=O)NC(=O)/C(=C\C=C\c3ccco3)C2=O)c1	16µM*	-0.6%	?	-0.1	45µM*	-6	1
CCCCn1c(=O)c(C(=O)Nc2ccc(C)cn2)c(O)c2ccccc21	-0.4%	0.4%	0.2	/	4%	/	-4
O=C(c1cc(F)ccc1F)C1CCCN(Cc2cc(Cl)ccc2O)C1 (stereo not drawn)	-1.0%	-0.5%	-0.5	3.0	-1%	11	6
CC(C)Cc1nnc(NC(=O)CCC(=O)N2CCN(CCOC(c3ccccc3)c3ccccc3)CC2)s1	0.5%	-3.1%	4.3	2.5	2%	13	7
CCC(=O)N1N=C(c2c(O)n(CCc3ccccc3)c(=O)[nH]c2=O)CC1c1ccc(OC)c(OC)c1 (stereo not drawn)	/	1.9%	-1.5	-1.0	22%	-12	7

A portion of the library; the hit share may differ from the screen's.
